A1 inh: blocks A1 activity; actives 0.51% (n = 21,000); caspase activation, % (no concentration beside the values); MEF A1-2A-BIM cells, caspase-Glo luminescence, 3 h; percent of clofoctol signal, DMSO as zero;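 active = most replicate scores above 10, or exactly half above 10 with mean activity above 10; inconclusive = mean activity below 10 while half the replicates exceed 10; inactive = most replicate scores below 10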;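 note: effector caspase 3 and 7 activity cleaving a DEVD luciferin substrate; 50 nL library stock added to about 30 µL; numbers are from one replicate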
BJeLR viab HTS: lowers viability of BJeLR cells | BJeLR fibroblasts viability, CellTiterGlo ATP luminescence, 48 h; HRASV12, hTERT and SV40 LT/ST transformed | actives 0.64% (n = 30,000) | AID 2275 | viability loss activity score, % (test concentration not listed); in the data active = viability loss activity score above about 50%; inconclusive = no clear call, values can overlap the other calls; inactive = below about 35%; about a fifth of its hits are not listed in these tables;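 note: higher score means fewer live cells and less ATP luminescence; stock transfer was 50 or 100 nL into about 30 µL; 0% = vehicle wells and 100% = a reference killing control; one replicate is shown; the record names a cut of 85%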
Starred values were filed as active, the others as inactive; ? = inconclusive; . = not tested or not shown.

molecule | A1 inh | BJeLR viab HTS
Cc1noc(C)c1NC(=O)N(C)C[C@H]1Oc2ccc(N(C)C)cc2C(=O)N([C@@H](C)CO)C[C@@H]1C | 0.0 | 0.6
c1ccc2[nH]c(CCCc3nc4ccccc4[nH]3)nc2c1 | 0.6 | 4.7
O=C(Nc1ccc2c(c1)OCO2)c1ccc(Br)o1 | -4.6 | 6.7
COc1ccc(CN(C)C[C@@H]2Oc3ccc(NS(=O)(=O)c4cn(C)cn4)cc3C(=O)N([C@@H](C)CO)C[C@H]2C)cc1 | -0.4 | 1.5
Cc1noc(C)c1NC(=O)Nc1ccc2c(c1)C(=O)N([C@H](C)CO)C[C@H](C)[C@H](CN(C)Cc1ccc(C(F)(F)F)cc1)O2 | -1.2 | -3.3
COc1ccc(CNC(=O)C(OC)c2ccccc2)cc1 (stereo not given) | 1.1 | -1.5
Cc1ccc(S(=O)(=O)N(C)C[C@H]2Oc3c(NS(=O)(=O)c4cn(C)cn4)cccc3C(=O)N([C@H](C)CO)C[C@H]2C)cc1 | . | -3.4
COc1cccc(NC(=O)CCC(=O)Nc2cccc(OC)c2)c1 | 0.2 | 4.3
O=C1NC2(CCCCC2)N(C(=O)c2ccccc2)C2=C1CCCC2 | 0.6 | 0.6
C[C@H]1CN([C@@H](C)CO)C(=O)c2cccc(NC(=O)C3CC3)c2O[C@H]1CN(C)S(=O)(=O)c1cccs1 | . | 11
COC(=O)c1ccc2c(c1)N(Cc1ccccc1)C(=O)c1ccccc1S2 | 0.5 | 0.1
CCOC(=O)C1=C(Nc2ccc(OC(C)=O)cc2)C(=O)N(C(C)(C)C)C1 | -0.7 | 4.3
CC1(C)[C@H](O)CC[C@@]2(C)[C@@H]3CC[C@](C)(C(O)CO)CC3=CC[C@H]12 (stereo not given in full) | -0.3 | -0.1
CCCNC(=O)Cn1cccc1C(=O)c1ccccc1 | 1.5 | -0.4
CC12CCC(c3c1nn(-c1ccccc1)c3C(F)(F)F)C2(C)C (stereo not given) | ? | 2.5
Cc1ccccc1CNC(=O)c1c(C)nc2ccccn2c1=O | -0.2 | 0.5
C[C@@H]1CN([C@H](C)CO)C(=O)c2cccc(NC(=O)c3ccc(-c4nccs4)cc3)c2O[C@H]1CN(C)C | . | -1.3
C=CCn1cnc2c(oc3ccccc32)c1=O | -1.7 | -1.1
COc1cc(SC)ccc1C(=O)N(C)c1ccccc1 | -0.4 | 1.5
CC1CCCC(C)N1C(=O)c1ccccc1 (stereo not given) | 0.1 | -11
COc1ccc(CC(=O)NCC(C)C)cc1 | 1.3 | -1.1
Cc1onc(-c2c(Cl)cccc2Cl)c1NC(=O)N(C)C | -0.3 | -5.5
C[C@H](CO)N1C[C@H](C)[C@@H](CN(C)Cc2ccc(Cl)c(Cl)c2)Oc2ccc(NS(=O)(=O)c3ccccc3)cc2C1=O | -1.1 | -10
CC(C)NC(=O)N(C)C[C@H]1Oc2ccc(NC(=O)Nc3ccc(C(F)(F)F)cc3)cc2C(=O)N([C@H](C)CO)C[C@@H]1C | 0.5 | -0.2
CC1CCC(NC(=O)c2ccc3snnc3c2)CC1 (stereo not given) | -1.0 | 0.8
COc1cc(C2SC(C)C(=O)N2CCc2ccccc2)cc(OC)c1OC (stereo not given) | -0.2 | -0.3
Cc1noc(C)c1NC(=O)N(C)C[C@@H]1Oc2c(NS(=O)(=O)c3cccs3)cccc2C(=O)N([C@@H](C)CO)C[C@@H]1C | . | 4.0
O=C(NCC(c1ccccc1)c1c[nH]c2ccccc12)c1ccc(C(F)(F)F)cc1 (stereo not given) | 0.2 | -5.8
CCCNC(C)(C)COC(=O)c1ccccc1 | 0.2 | 0.7
NC(=NC(=O)c1cccc(Cn2cc(C(F)(F)F)ccc2=O)c1)c1ccc(Cl)cc1 | -0.4 | -6.2
CCN(CC)CCNC(=O)c1ccc(NC(C)=O)cc1 | 2.2 | -1.8
C[C@H]1CN([C@@H](C)CO)C(=O)c2cc(NS(=O)(=O)c3ccccc3)ccc2O[C@@H]1CN(C)CC1CC1 | -0.1 | -5.1
CCOC(=O)c1cc2c(NCc3ccc(Cl)cc3Cl)nccc2nc1C(F)(F)F | 0.1 | 1.5
CCn1c2c(c3cc(Br)ccc31)CCC/C2=N\O | -0.3 | 2.5
CC1CCCC(C)N1CCNC(=O)c1ccc2c(c1)ncn2C1CCCCC1 (stereo not given) | -1.1 | 3.0
CCc1ccccc1NC(=O)C(Cc1ccccc1)N1C(=O)c2ccccc2C1=O (stereo not given) | 0.2 | -4.1
C[C@H](CO)N1C[C@H](C)[C@H](CN(C)C(=O)Nc2ccccc2)Oc2ccc(NS(=O)(=O)c3ccc(F)cc3)cc2C1=O | -0.5 | 5.3
C[C@@H]1CN([C@H](C)CO)C(=O)c2cc(NS(=O)(=O)c3ccccc3)ccc2O[C@H]1CN(C)C(=O)NC1CCCCC1 | 0.3 | -1.2
COC(=O)C1=C2C(=O)c3c(O)cc(CO)cc3OC2C(O)C=C1 (stereo not given) | 0.5 | -5.1
C[C@H]1CN([C@@H](C)CO)C(=O)c2cc(NC(=O)C3CC3)ccc2O[C@H]1CN(C)Cc1ccc(C(F)(F)F)cc1 | 1.3 | -0.4
C[C@H]1CN([C@@H](C)CO)C(=O)c2cc(NC(=O)NC3CCCCC3)ccc2O[C@H]1CN(C)CC1CCCCC1 | -0.2 | 0.9
Cc1noc(C)c1NC(=O)N(C)C[C@H]1Oc2ccc(NS(C)(=O)=O)cc2C(=O)N([C@@H](C)CO)C[C@H]1C | -0.3 | -2.9
COc1ccc(NC(=O)Nc2cccc3c2O[C@@H](CN(C)S(=O)(=O)c2ccc(F)cc2)[C@H](C)CN([C@@H](C)CO)C3=O)cc1 | . | 0.5
CCCCC/C=C\C/C=C\C/C=C\C/C=C\CCCC(=O)OC(CO)CO | -0.4 | 4.6
COc1ccc(S(=O)(=O)N(C)C[C@@H]2Oc3c(NS(=O)(=O)c4ccc(F)cc4)cccc3C(=O)N([C@H](C)CO)C[C@@H]2C)cc1 | . | -11
CCOC(=O)c1c(/N=C/c2c(O)n(C)c3ccccc23)sc2c1CCC2 | -1.4 | -0.3
Cc1noc(C)c1NC(=O)N(C)C[C@@H]1Oc2ccc(NC(=O)CCN3CCOCC3)cc2C(=O)N([C@@H](C)CO)C[C@@H]1C | 0.3 | -3.2
O=C(CSc1nnc(-c2ccccc2)o1)N1c2ccccc2CCc2ccccc21 | 0.2 | -0.6
CS(=O)(=O)c1sc(C(=O)O)c2c1C=CCC2 | 0.5 | -2.8
C[C@@H]1CN([C@@H](C)CO)C(=O)c2cccc(NS(=O)(=O)c3ccc(Cl)cc3)c2O[C@@H]1CN(C)Cc1ccc(C(=O)O)cc1 | . | 7.0

Additional compounds:
molecule | A1 inh | BJeLR viab HTS
CCCN(CCC)C(=O)C1=C(C)C(=O)OC12CCCCC2 | . | -1.6
O=C(NCc1ccccc1)C1CCN(C(=O)c2ccccc2)CC1 | 0.7 | 2.0
CCC1CCCCN1C(=O)Cn1c(=O)n(C2CCCC2)c(=O)c2ccccc21 (stereo not given) | . | 8.4
C[C@@H]1CN([C@H](C)CO)C(=O)c2cccc(NC(=O)Nc3ccc(F)cc3)c2O[C@@H]1CN(C)C(=O)Nc1ccc(F)cc1 | . | -6.9
O=c1cc(CSc2ccccn2)c2ccc(O)cc2o1 | -0.3 | 4.7
C[C@H]1CN([C@@H](C)CO)C(=O)c2cccc(NC(=O)c3ccc(-c4nccs4)cc3)c2O[C@H]1CN(C)CC1CCCCC1 | . | 2.1
Cc1ccc(C)c2[nH]c(=O)c(CCNC(=O)C(C)(C)Oc3ccc(Cl)cc3)cc12 | . | -1.7
CC(C)NC(=O)Cn1c2ccccc2c2cn[nH]c(=O)c21 | 0.4 | -1.3
NS(=O)(=O)c1ccc(CCn2c(-c3ccccc3)nc(=S)c3c2CCCC3)cc1 | -0.1 | 2.5
Cc1csc2c(SCC(O)C(F)(F)F)ncnc12 (stereo not given) | -3.3 | -0.5
COC(CN(C)C(=O)c1ccc(CS(=O)(=O)c2ccccc2C)o1)OC | . | -4.0
COc1ccc(NC(=O)Nc2cccc3c2O[C@H](CN(C)C(=O)Nc2c(C)noc2C)[C@@H](C)CN([C@H](C)CO)C3=O)cc1 | . | 0.6
Cc1cccc(C2Sc3ccccc3N=C3c4ccccc4C(=O)C32)c1 (stereo not given) | 0.0 | -0.3
C[C@H](CO)N1C[C@H](C)[C@@H](CN(C)S(C)(=O)=O)Oc2c(NC(=O)NC3CCCCC3)cccc2C1=O | . | -4.0
CNC[C@H]1Oc2ccc(NC(=O)c3ccncc3)cc2C(=O)N([C@@H](C)CO)C[C@H]1C | -0.5 | -4.2
C=C(COC(=O)C(C)C)C1Oc2cc(C(C)=O)ccc2C1OC(=O)C(C)C (stereo not given) | -0.1 | 10
C[C@H](CO)N1C[C@H](C)[C@H](CN(C)S(C)(=O)=O)Oc2c(NC(=O)Nc3ccccc3)cccc2C1=O | . | -1.7
CCC(C)NC(=O)C1CCN(c2nc3ccccc3n3cccc23)CC1 (stereo not given) | 4.8 | 1.4
COc1ccc(CN(C)C[C@H]2Oc3c(NS(=O)(=O)c4ccc(Cl)cc4)cccc3C(=O)N([C@H](C)CO)C[C@H]2C)cc1 | . | -1.3
COC(=O)c1ccc(C2C(Oc3ccc(OC)cc3)C(=O)N2Cc2ccc(F)cc2)cc1 (stereo not given) | . | 4.6
O=S(=O)(NCCc1c[nH]c2ccccc12)c1ccc(Cl)c(Cl)c1 | -1.7 | 1.4
Cc1ccc(S(=O)(=O)N(C)C[C@@H]2Oc3c(NS(=O)(=O)c4c(C)noc4C)cccc3C(=O)N([C@@H](C)CO)C[C@@H]2C)cc1 | . | -3.5
O=C1CC(=Nc2ccc(F)c(C(F)(F)F)c2)c2ccccc2C1=O | 0.0 | 1.6
CN(C)/C=C(\Sc1nnc(N)s1)C(=O)Nc1ccc(F)c(F)c1F | -0.1 | -4.9
COc1ccc(NC(=O)N(C)C[C@H]2Oc3ccc(NC(=O)Nc4ccc(F)cc4)cc3C(=O)N([C@@H](C)CO)C[C@H]2C)cc1 | 1.5 | -0.2

Exported as labelled records: part of the list above.
> COC(=O)c1ccc(C2C(Oc3ccc(OC)cc3)C(=O)N2Cc2ccc(F)cc2)cc1 (stereo not given)
  A1 inh: .
  BJeLR viab HTS: 4.6
> O=S(=O)(NCCc1c[nH]c2ccccc12)c1ccc(Cl)c(Cl)c1
  A1 inh: -1.7
  BJeLR viab HTS: 1.4
> Cc1ccc(S(=O)(=O)N(C)C[C@@H]2Oc3c(NS(=O)(=O)c4c(C)noc4C)cccc3C(=O)N([C@@H](C)CO)C[C@@H]2C)cc1
  A1 inh: .
  BJeLR viab HTS: -3.5
> O=C1CC(=Nc2ccc(F)c(C(F)(F)F)c2)c2ccccc2C1=O
  A1 inh: 0.0
  BJeLR viab HTS: 1.6

Next section:
molecule | A1 inh | BJeLR viab HTS
CNC[C@H]1Oc2ccc(NC(=O)Cc3ccccc3)cc2C(=O)N([C@H](C)CO)C[C@H]1C | 0.0 | 1.7
C[C@@H]1CN([C@H](C)CO)C(=O)c2cccc(NC(=O)C3CC3)c2O[C@@H]1CN(C)C(=O)NC1CCCCC1 | . | -7.2
Cc1c(NC(=O)NCc2ccccc2)c(=O)n(-c2ccccc2)n1C | . | -4.6
COc1ccc2c(c1OC)C(=O)O[C@@H]2[C@H]1c2c(cc3c(c2OC)OCO3)CCN1C | -0.4 | 1.2
Cc1cccc(SCC(=O)Nc2ccc3c(c2)OCCO3)c1 | -2.2 | -7.3
CC(C)NC(=O)N(C)C[C@H]1Oc2ccc(NC(=O)c3ccncc3)cc2C(=O)N([C@@H](C)CO)C[C@H]1C | -0.4 | -0.1
C[C@@H]1CN([C@H](C)CO)C(=O)c2cc(NC(=O)Nc3ccc(C(F)(F)F)cc3)ccc2O[C@H]1CN(C)C | -0.1 | -2.3
N/C(CS(=O)(=O)Cc1ccc(F)cc1)=N\O | 0.3 | -2.3
COc1ccc(N=C2SCC(=O)N2CCc2ccc(OC)c(OC)c2)cc1 | 0.0 | 6.5
CC(C)NC(=O)N(C)C[C@@H]1Oc2ccc(NC(=O)Cn3cnnn3)cc2C(=O)N([C@@H](C)CO)C[C@@H]1C | -0.8 | -1.3
C[C@H](CO)N1C[C@H](C)[C@@H](CN(C)C(=O)Nc2ccc3c(c2)OCO3)Oc2ccc(NC(=O)Nc3ccc(F)cc3)cc2C1=O | -0.6 | -0.1
C[C@@H]1CN([C@@H](C)CO)C(=O)c2cccc(NS(C)(=O)=O)c2O[C@@H]1CN(C)C(=O)Nc1ccc2c(c1)OCO2 | . | 2.5
CSc1nc2ccccc2n1CCO | 0.3 | -0.1
COc1cc(C(F)(F)F)nc2ccc(C)c(NC(=O)Nc3ccc(OC(F)(F)F)cc3)c12 | 7.5 | 3.3
COc1ccccc1CNC(=O)C(C)Oc1ccccc1 (stereo not given) | 0.9 | -0.4
O=C(NCC1(c2ccccc2)CCCC1)c1cc2c(=O)[nH]c3ccccc3c2s1 | . | 1.0
Cc1ccc(N2CCN(c3ccc(C)cc3)C2c2cccs2)cc1 | . | 1.1
C[C@H](CO)N1C[C@H](C)[C@H](CN(C)CC2CCCCC2)Oc2c(NC(=O)c3ccncc3)cccc2C1=O | . | 2.0
NS(=O)(=O)c1cc2c(cc1Cl)NC(CC1CCCC1)NS2(=O)=O (stereo not given) | -0.3 | 1.8
C[C@H](CO)N1C[C@H](C)[C@@H](CN(C)C(=O)NC2CCCCC2)Oc2ccc(NC(=O)Cn3cnnn3)cc2C1=O | 0.2 | -3.4
CC(C)=CCc1c(-c2ccc(O)cc2O)oc2c3c(cc(O)c2c1=O)OC(C)(C)C=C3 | -0.5 | 3.3
CSc1c(C#N)c(-c2ccc(Cl)cc2)nn1C | -0.3 | 1.1

Only part of the results is shown; rates above refer to the full screens.
